Yeast UUG start – alters start codon recognition fidelity in yeast | AID 602363 | activity score, % at 18.7 µM | 350,000 tested, 0.13% active | S. cerevisiae UUG-firefly luciferase reporter, luminescence/redox ratio;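 active = replicate mean at a twofold rise or more, about +100% in these data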;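 note: firefly luciferase made from a UUG start codon reports start codon fidelity; reporter light over untreated wells divided by growth signal over untreated wells; some hits fall short of that in this replicate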
MT1-MMP act inh – blocks activation of human MT1-MMP. P50281. HT1080 RFP-PRO-GFP cells, GFP/RFP ratio fluorescence, overnight; percent of plate control window, DMSO zero. GFP/RFP ratio change, % at 20 µM. 360,000 tested, 0.061% active. AID 651647;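 active = GFP/RFP ratio change of at least 30% with cell ATP level not reduced by more than half and red fluorescence within 50% of control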; note: strong numbers were not always called active
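Assay system: RFP-PRO-GFP reporter HT1080 cells; read-out basis: GFP/RFP fluorescence ratio; benchmarks: DMSO wells and RFP-L50D-GFP cells; doses: 20 µM single dose, 1% DMSO; schedule: overnight cell settling, then overnight compound exposure, 37 °C, 5% CO2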
eIF4H inh – inhibitors of RNA binding by human eIF4H; 290,000 tested, 0.94% active; eIF4H fluorescence polarization binding assay; inhibition, % at 35 µM; AID 2012;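 active = 50% or more with normal probe brightness, or confirmed in later tests; inconclusive = above 50% with abnormal brightness, or retests that disagree; inactive = below 50% or failed in later tests; about a fifth of its hits are not listed in these tables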;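 note: calls also rest on retests at 20 µM and on dose response follow-up; 0% = protein and probe with vehicle and 100% = probe without protein; strong numbers were not always called active; many hits fall short of the cut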
Rce1 inh – blocks yeast Ras-converting enzyme; Q03530; 290,000 tested, 0.27% active; calls only; yeast membranes, quenched prenylated peptide cleavage fluorescence;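 active = fall in fluorescence gain of 50% or more versus controls, with final raw signal at or below 3038400; inconclusive = same 50% fall but final raw signal above 3038400; inactive = fall in fluorescence gain under 50%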;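 note: plate controls were neutral control wells for no effect and wells lacking membranes for full effect; tested at 10 µM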
Target sequence (Q03530 whole entry, looked up): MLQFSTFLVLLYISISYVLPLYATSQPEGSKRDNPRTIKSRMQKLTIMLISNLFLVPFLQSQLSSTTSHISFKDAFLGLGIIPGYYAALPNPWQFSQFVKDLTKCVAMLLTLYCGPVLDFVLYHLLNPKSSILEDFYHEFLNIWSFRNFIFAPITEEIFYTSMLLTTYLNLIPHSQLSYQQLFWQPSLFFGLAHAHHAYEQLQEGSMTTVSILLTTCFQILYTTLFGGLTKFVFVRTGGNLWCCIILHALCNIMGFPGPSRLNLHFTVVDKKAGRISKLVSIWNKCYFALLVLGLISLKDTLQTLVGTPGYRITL
PABP polyA inh – PABP-poly(A) binding inhibition | P11940 | PABP-poly(A) RNA binding, fluorescence polarization | inhibition, % at 35 µM | 290,000 tested, 1% active | AID 2014;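 active = 50% or more with normal probe brightness, or confirmed in later tests; inconclusive = above 50% with abnormal brightness, or retests that disagree; inactive = below 50% or failed in later tests; about a fifth of its hits are not listed in these tables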;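 note: calls also rest on retests at 20 µM and on dose response follow-up; controls were probe without protein and protein plus probe with vehicle; some compounds called inactive have numbers as strong as hits; many hits fall short of the cut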
CSC inhib – cancer stem cell inhibition | inhibition, % at 7.5 µM | cancer stem cell-like cells viability, luminescence | 300,000 tested, 1.1% active;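 active = mean at 75% or more and at least half the replicates too; inconclusive = mean and replicates disagree; tested in HMLE shEcad cells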;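 note: 0% = median of negative and 100% = median of positive control wells; the first replicate is given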
Env fusion inh – inhibitors of HIV Env-mediated cell fusion; HeLa-JRFL Env/CEM21 cell fusion, luciferase; inhibition, % at 12.3 µM; 360,000 tested, 1.1% active; AID 651610;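 active = mean replicate inhibition score of at least 50 and every replicate individually at or above 50; inconclusive = only one of the two criteria met; inactive = mean below 50 and not all replicates reaching 50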;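 note: 0% = plate neutral controls and 100% = maraviroc near 300 nM; one replicate is shown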
MT1-MMP act inh RFP – recorded beside MT1-MMP act inh, whose call it bears; RFP signal change, %; measured here: RFP expression control read;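 0 = vehicle wells; hits needed this value within 50% of zero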
The depositor's hits bear a star; i = inactive; ? = inconclusive; . = not tested or not shown; & = joins results of further samples; [ ] = remark or other dose. Some of the compounds tested. The share of hits here may be higher or lower than overall.

SMILES	Yeast UUG start	MT1-MMP act inh	MT1-MMP act inh RFP	eIF4H inh	Rce1 inh	PABP polyA inh	CSC inhib	Env fusion inh
CN(CC(=O)Nc1ccc(Cl)c(C(F)(F)F)c1)C(=O)C1CC(=O)N(CCc2ccccc2)C1 (stereo unspecified)	16	1	-4	.	.	.	.	39
O=C(OCC(=O)N1CCN(c2ccccc2)CC1)c1ccc(Cl)cc1[N+](=O)[O-]	-10	2	-1	.	i	.	-14	-4
N#Cc1c(C(F)(F)F)cc(-c2ccc(Cl)cc2)nc1SCC(=O)O	-4	-2	-2	-2	i	14	3	-11
Cc1cccc(-c2noc(CN(C)S(=O)(=O)c3cc(Cl)ccc3Cl)n2)c1	-8	3	-2	-11	i	-6	44	.
COc1cccc(/C=N/Nc2ncnc(N)c2[N+](=O)[O-])c1OC	-72	2	-6	2	i	6	-9	.
O=C(Nc1ccc(N2CCOCC2)cc1)C1CCCN(S(=O)(=O)c2cccc(C(F)(F)F)c2)C1 (stereo unspecified)	-10	2	0	-6	i	-2	9	.
CCOc1ccccc1N1CCN(Cc2cnc(-c3ccccc3)[nH]2)CC1	13	3	2	-6	i	-2	-2	19
O=C(NCC1CCCO1)c1ccc(N2CCCCC2)nc1 (stereo unspecified)	-6	1	5	-2	i	6	-10	.
O=C(CC12CC3CC(CC(C3)C1)C2)NC(=S)N1CCCCC1	.	1	-5	-11	i	-10	-5	-4
CC(=O)NC(c1ccccc1)c1nc(/C=C/c2ccccc2)cs1 (stereo unspecified)	-8	-6	-1	.	.	.	.	-22
CC(=O)Nc1ccc(N2N=C(C)C(N=Nc3ccccc3)C2=O)cc1 (stereo unspecified)	-4	2	1	10	i	13	-14	16
O=C(/C=C/c1ccc([N+](=O)[O-])s1)N1CCN(c2ccccc2)CC1	-11	-5	-4	-7	i	2	16	-8
CCN1CCN(CCCNC(=O)CCCn2nc(C)c3sc4ccccc4c3c2=O)CC1	8	2	2	-4	i	8	-3	-9
O=C(c1ccccc1)c1nccc2ccccc12	.	3	7	-8	i	-8	-1	16
CCC(CC)C(=O)c1c[nH]c(C(=O)N2CCN(c3ccccc3F)CC2)c1	-14	.	.	-6	i	-8	-3	-6
CCOc1cccc2sc(=NC(=O)c3ccc(S(=O)(=O)N4CCOCC4)cc3)n(C)c12	-3	-1	1	-5	.	4	3	.
O=C(c1cccs1)N1CCCC(c2nc3c(nnn3Cc3ccccc3Cl)c(=O)[nH]2)C1 (stereo unspecified)	-6	-2	0	1	i	5	-9	-4
Cc1ccc(C(=O)c2c(NC(=O)c3cccnc3)sc3c2CCCC3)cc1	-2	-5	-2	0	i	3	-12	20
CCCn1c(=N)c(C(=O)NCC2CCCO2)cc2c(=O)n3cccc(C)c3nc21 (stereo unspecified)	-18	-4	0	-6	i	-10	5	.
Cc1ccc2nc(C)/c(=N\O)c(C)nc2c1	-22	-6	4	3	i	-1	14	-184

Pulled one by one from the list above:
SMILES	Yeast UUG start	MT1-MMP act inh	MT1-MMP act inh RFP	eIF4H inh	Rce1 inh	PABP polyA inh	CSC inhib	Env fusion inh
CC(=O)Nc1ccc(N2N=C(C)C(N=Nc3ccccc3)C2=O)cc1 (stereo unspecified)	-4	2	1	10	i	13	-14	16
Cc1ccc2nc(C)/c(=N\O)c(C)nc2c1	-22	-6	4	3	i	-1	14	-184
CC(=O)NC(c1ccccc1)c1nc(/C=C/c2ccccc2)cs1 (stereo unspecified)	-8	-6	-1	.	.	.	.	-22
CCN1CCN(CCCNC(=O)CCCn2nc(C)c3sc4ccccc4c3c2=O)CC1	8	2	2	-4	i	8	-3	-9
COc1cccc(/C=N/Nc2ncnc(N)c2[N+](=O)[O-])c1OC	-72	2	-6	2	i	6	-9	.
O=C(Nc1ccc(N2CCOCC2)cc1)C1CCCN(S(=O)(=O)c2cccc(C(F)(F)F)c2)C1 (stereo unspecified)	-10	2	0	-6	i	-2	9	.

Further structures:
SMILES	Yeast UUG start	MT1-MMP act inh	MT1-MMP act inh RFP	eIF4H inh	Rce1 inh	PABP polyA inh	CSC inhib	Env fusion inh
C/C=C1\C(OC2OC(CO)C(O)C(O)C2O)OC=C(C(=O)OC)C1CC(=O)OCC1C(C)C(OC(=O)CC2C(C(=O)OC)=COC(OC3OC(CO)C(O)C(O)C3O)/C2=C\C)CC1C(CO)CO (stereo unspecified)	0	3	0	7	i	10	-9	.
Cc1cccc(-n2ncc3c(NCc4ccccn4)ncnc32)c1	-18	5	6	-7	i	-4	-1	.
Cc1ccccc1C(=O)N1N=C(c2cccc(NS(C)(=O)=O)c2)CC1c1cccs1 (stereo unspecified)	-2	-2	-2	-8	i	-14	-6	-6
COc1ccc(NC(=S)Nc2ccc(C)c(S(=O)(=O)N3CCCCC3)c2)cc1	.	.	.	9	i	10	11	.
COCCCNC(=O)/C(C#N)=C/c1c(N2CCN(c3ccc(OC)cc3)CC2)nc2c(C)cccn2c1=O	11	1	0	1	i	9	-10	24
O=C(OCc1cc([N+](=O)[O-])cc2c1OCOC2)c1ccccn1	.	-1	5	0	.	2	11	-12
CC1CCCN(C(=O)C2CCN(S(=O)(=O)c3ccc4c(c3)CC(C)N4C(=O)C3CC3)CC2)C1 (stereo unspecified)	-14	-1	-3	14	i	22	-5	7
COc1nc(Nc2ccc(C(C)C)cc2)nc(OC)n1	-2	-4	-1	-1	i	-4	11	.
CCCCCN(C(=O)CCC(=O)OCC(=O)N1CCC(C)CC1)c1c(N)n(CCCC)c(=O)[nH]c1=O	-5	0	1	.	i	.	-16	.
COc1ccc(CNc2ncc(-c3ccc(F)cc3)n2C)cc1OC	-3	1	2	0	i	10	-17	-3
CCn1c(COc2cccc(OC)c2)nnc1SCC(=O)Nc1ccccc1C(=O)OC	-7	4	2	-3	i	-6	-12	26
CCc1nnc(NC(=O)c2cc(S(=O)(=O)N3CCOCC3)ccc2N2CCCCC2)s1	-3	3	0	-8	i	-2	.	5
CCN(CC)c1ccc(NC(=O)COC(=O)COc2ccccc2[N+](=O)[O-])cc1	.	2	7	9	i	-1	-16	.
O=C(/C=C/[C@H]1O[C@@H](n2ccc(=O)[nH]c2=O)[C@H](O)[C@@H]1O)NCCc1cccs1	-11	2	4	.	.	.	.	28
O=C(O)c1cc2ccccc2c2c1C(=O)c1ccccc1-2	-14	2	-2	.	.	.	.	4
CC1CCN(C(=O)c2[nH]cnc2C(=O)N2CCN(C(=O)OC(C)(C)C)CC2)CC1	-12	0	1	.	.	.	-11	1
Cc1sc(N)nc1-c1cccs1	.	0	-1	7	i	6	9	-12
N#Cc1cc2c(nc1SCC(=O)O)CCCCC2	.	2	4	-6	i	6	-19	11
COc1ccc(-n2ncc3c(NCCCN4CCOCC4)ncnc32)cc1	-37	2	0	-7	i	-4	-19	.
C[C@H]1CN([C@@H](C)CO)C(=O)CCCn2nncc2CO[C@@H]1CN(C)C(=O)Nc1ccc(N2CCCCC2)cc1	5&8	3	2	.	.	.	.	0[16.7 µM]
COc1ccc(N=Nc2c(C)[nH]c3ccccc23)cc1	-5	-8	3	.	i	.	33	2
Cc1cc(C)c2nc(N3CCN(C(=O)c4ccco4)CC3)sc2c1	-3	2	-1	.	i	.	5	-40
CC(C)OCCCNC(=O)c1cc2c(s1)CS(=O)(=O)C2	-5	-2	3	-17	i	-12	6	.
Cc1cc(Nc2ccc([N+](=O)[O-])cc2)c2ccccc2n1	-4	0	0	-3	i	-2	-1	5
CCc1sc(N2C(=O)C3C4CCC(C4=C(C)C)C3C2=O)nc1-c1ccccc1 (stereo unspecified)	10	-4	-1	-13	i	-5	-4	-48
Cc1ccc(C)n1N1C(=O)/C(=C\c2ccc(Cl)cc2)SC1=S	-22	1	-4	0	i	-10	47	-35
C[C@H]1CN([C@@H](C)CO)C(=O)c2cc(Br)cnc2O[C@H]1CN(C)Cc1ccc(Oc2ccccc2)cc1	10	0	0	.	.	.	.	3[16.7 µM]
CC1(C)C2CCC1(C)C(NC1=NCCC1)C2 (stereo unspecified)	-18	-3	0	0	.	8	4	-6
NC(=O)C1(N2CCCCC2)CCN(C(=S)Nc2ccccc2)CC1	-7	-1	-2	-8	i	-1	-11	10
O=C(c1cccc(S(=O)(=O)N2CCOCC2)c1)N1CCN(S(=O)(=O)c2cccc([N+](=O)[O-])c2)CC1	12	-8	-4	.	.	.	.	-3
c1ccc(Cn2c(CNc3nc4ccccc4n3CCN3CCOCC3)nc3ccccc32)cc1	-20	2	0	-8	i	1	.	-31
COc1ccc(Cn2c(C)cc3c(c2=O)C(c2cccs2)C(C#N)=C(N)O3)cc1OC (stereo unspecified)	-10	6	3	-3	i	-9	1	-39
COc1ccc(NC(=O)C(NC(=O)c2ccc(=O)[nH]c2)c2ccccc2)cc1 (stereo unspecified)	-7	4	7	-12	i	?	0	-1
CC(Oc1ccc(Cl)cc1Cl)C(=O)NC1CCSC1=O (stereo unspecified)	-11	1	2	-10	i	3	-9	-138
NC(=O)c1ccsc1NC(=O)COC(=O)C1CCCN1C(=O)c1cccs1 (stereo unspecified)	.	.	.	-4	i	5	.	.
CCc1nnc(NC(=O)CSCc2cc(=O)n3ccsc3n2)s1	-22	-1	1	0	i	-4	-15	-2
CCCN(CC(=O)Nc1ccccc1C)C(=O)c1ccc(OCc2c(C)noc2C)cc1	-15	3	1	.	.	.	.	-21
Cc1cc([N+](=O)[O-])nn1Cc1noc(C(=O)NCCCn2ccnc2)n1	-17	1	4	-6	i	4	-10	-5
C[C@@H]1CN([C@H](C)CO)C(=O)CCCn2nncc2CO[C@H]1CN(C)Cc1ccc(O)cc1	5&15	-5	1	.	.	.	.	12
COc1cc(OC)cc(-c2nnc(SCC(=O)N3CCCC3)o2)c1	-7	-1	0	4	i	-10	-9	.
CN(C(=O)COC(=O)c1ccc(Cl)cc1N)C1CCS(=O)(=O)C1 (stereo unspecified)	-20	2	2	-13	i	-16	-1	.
COc1ccc(/C=N/NC(=O)c2ccncc2)cc1CN1CCCc2ccccc21	-8	-3	-1	-13	i	0	0	15
S=C1NC2(CCS1)Oc1ccccc1C1CC(c3ccccc3)=NN12 (stereo unspecified)	.	.	.	-8	i	7	.	.
Cc1cc(C)c2nc(NCCCNC(=S)NCCCN(C)C)c(C#N)cc2c1	.	-2	1	-5	i	-2	13	-3
CC(C)C[C@H](N)c1nnc(S(=O)(=O)Cc2ccc(F)cc2)o1	-5	4	1	-2	i	21	77*	.
Cc1cc(C)nc(NC=C2C(=O)OC(C)(C)OC2=O)n1	.	1	4	-10	i	7	-10	-5
O=C1CC(C(=O)Nc2ccccc2)N=C(N2CCOCC2)N1 (stereo unspecified)	-9	-1	4	-4	i	-1	-3	26
Cc1cn([C@H]2C[C@H](O)[C@@H](CCC(=O)NCCc3cnc[nH]3)O2)c(=O)[nH]c1=O	-22	2	1	.	.	.	.	16
CN1CCN(c2ccccc2NC(=O)c2ccc(-c3ccccc3[N+](=O)[O-])o2)CC1	-15	0	1	-7	i	-4	5	4

From PubChem BioAssay
